Screening data deposited in PubChem BioAssay by Broad Institute.
MITF inh: inhibitors of MITF, primary screen, MITF inhibitor project, cell-based, luminescence; TRPM1 promoter luciferase, 24 h; inhibition, % (no concentration beside the values); 0.28% of 37,000 active; AID 2240, 2010;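 active means most replicates at 85% or more, or half of them and the mean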;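 further: human melanocyte line stably carrying TRPM1 promoter luciferase reporter; 0% = vehicle wells and 100% = a positive control; the first replicate is given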
Shh pathway inh: Hedgehog pathway signaling inhibitors, primary screen, luminescence, Shh-LIGHT2 cells, Gli-luciferase. Shh-LIGHT2 Gli-luciferase reporter, 30 h. inhibition, % (no concentration beside the values). 2.1% of 22,000 active;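 active means replicate mean of 65% or more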;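 further: pathway switched on by Shh-conditioned medium diluted 1 in 25 in low serum; 100 nL library stock added to about 40 µL; 0% = median of neutral wells and 100% = positive control level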
PD-1 reverse act: activators reversing PD-1 mediated T-cell inhibition, primary screen, luminescence, primary human CD4 T cells, PD-L1 beads; activation, % (no concentration beside the values); 29,000 tested, under 10 active; CellTiter-Glo 96 h; AID 2316, 2010;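 active means replicate mean of 50% or more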;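 further: 0% = median vehicle wells and 100% = positive control; 100 nL library stock added to about 50 µL; numbers are from one replicate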
YB-1 expr inh: inhibitors of YB-1 gene expression, primary screen, cell-based, fluorescence; U2OS, qRT-PCR YB-1 vs CDIP delta delta Cp, 16 h; stronger effect = higher value; zero = DMSO, each unit about twofold; delta delta Cp (YB-1 minus CDIP) (concentration not given with the values); 0.37% of 30,000 active;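 active means delta delta Cp rounded down to an integer at or above 3, about 3 SD of DMSO wells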;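 further: higher means less YB-1 transcript or more CDIP transcript relative to DMSO; stock transfer was 100 nL into about 100 µL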
Active calls of the source: *; . = no result given. A portion of the library (hit frequency here may not be typical).

SMILES	MITF inh	Shh pathway inh	PD-1 reverse act	YB-1 expr inh
C[C@H]1CN([C@@H](C)CO)C(=O)c2cc(NS(=O)(=O)c3cccs3)ccc2O[C@@H]1CN(C)Cc1ccc(C(=O)Nc2ccccc2N)cc1	-20.5	.	-0.8	-0.0606
C/C=C1\C(O[C@@H]2O[C@H](CO)[C@@H](O)[C@H](O)[C@H]2O)OC=C(C(=O)OC)C1CC(=O)OCC(O)c1ccc(O)c(O)c1 (stereo partly specified)	-3.5	-25.5	1.4	-0.605
C[C@@H]1CN([C@@H](C)CO)C(=O)c2cc(NS(=O)(=O)c3ccc(F)cc3)ccc2O[C@H]1CN(C)Cc1ccc2c(c1)OCO2	1.5	.	-1.3	0.169
C[C@H](CO)N1C[C@H](C)[C@H](CN(C)C(=O)Nc2ccc(C(F)(F)F)cc2)Oc2ccc(NS(C)(=O)=O)cc2CC1=O	4.9	-5.8	.	0.156
O=[N+]([O-])c1ccc(OCc2nc(-c3ccccn3)no2)cc1	-51.7	.	-1.0	.
C[N+](C)(Cc1ccccc1)Cc1ccccc1	13.0	.	0.8	-1.28
Cc1noc(C)c1NC(=O)Nc1ccc2c(c1)CC(=O)N([C@@H](C)CO)C[C@H](C)[C@H](CN(C)C(=O)NC1CCCCC1)O2	-6.0	-23.2	1.2	0.457
C[C@H]1CN([C@@H](C)CO)C(=O)Cc2cc(NC(=O)Cc3ccccc3)ccc2O[C@@H]1CN(C)Cc1ccncc1	-4.3	.	0.2	0.498
Cc1noc(C)c1NC(=O)Nc1cccc2c1O[C@H](CN(C)C(=O)NC1CCCCC1)[C@H](C)CN([C@H](C)CO)C2=O	-5.2	-5.7	0.9	-0.279
Cc1ccc(S(=O)(=O)Nc2ccc3c(c2)C(=O)N([C@H](C)CO)C[C@H](C)[C@H](CN(C)S(=O)(=O)c2ccc(Cl)cc2)OCCCC[C@@H](C)O3)cc1	34.3	21.0	-9.9	-0.0408
COc1ccc(NC(=O)N(C)C[C@@H]2Oc3c(NC(=O)C4CCCCC4)cccc3C(=O)N([C@@H](C)CO)C[C@H]2C)cc1	-6.3	2.2	1.7	-0.0384
Cc1cccc(NC(=O)CSc2nc(-c3ccccc3)c(-c3ccccc3)[nH]2)c1C	54.9	.	-1.9	.
C[C@@H]1CN([C@@H](C)CO)C(=O)Cc2cc(NC(=O)Nc3ccc(F)cc3)ccc2O[C@@H]1CN(C)Cc1ccccc1	5.8	-3.0	.	-0.0176
CNC[C@@H]1Oc2ccc(NC(=O)C3CC3)cc2CC(=O)N([C@H](C)CO)C[C@H]1C	-0.4	-17.3	0.2	-0.0886
C[C@@H]1CN([C@H](C)CO)C(=O)c2cc(NC(=O)Nc3ccc(F)cc3)ccc2O[C@H]1CN(C)Cc1ccncc1	-4.1	.	.	-0.167
C[C@@H]1CN([C@@H](C)CO)C(=O)c2cc(NC(=O)NC3CCCCC3)ccc2O[C@H]1CN(C)Cc1ccc(C(=O)O)cc1	-8.5	-4.0	-0.6	0.33
O=C(Nc1ccc(S(=O)(=O)NCC2CCCO2)cc1)c1cc(-c2ccccc2)nc2ccccc12 (stereo unspecified)	25.8	.	1.5	.
COc1cccc(/C=C/c2cc(C(F)(F)F)[nH]c(=O)n2)c1OCC(=O)O	4.1	.	0.1	.
COc1ccc(S(=O)(=O)Nc2ccc3c(c2)CC(=O)N([C@H](C)CO)C[C@H](C)[C@H](CN(C)C(=O)Nc2ccc(C(F)(F)F)cc2)O3)cc1	10.4	18.5	0.1	-0.282
Nc1cc(C(Cl)=C(Cl)Cl)c(S(N)(=O)=O)cc1S(N)(=O)=O	-4.1	54.3	4.9	0.132
O=C(c1ccccc1)C(c1ccccc1)n1nnc2ccccc21 (stereo unspecified)	3.9	.	1.8	.
C[C@@H]1CN([C@@H](C)CO)C(=O)c2cc(NC(=O)Nc3cccc4ccccc34)ccc2O[C@@H]1CN(C)C(=O)Nc1ccccc1	-0.3	-5.3	-0.7	0.588
COc1ccc(C(=O)NCCSc2ccccn2)cc1	39.5	.	1.3	.
Cc1noc(C)c1S(=O)(=O)N(C)C[C@@H]1OCCCC[C@@H](C)Oc2ccc(NC(=O)C3CCCCC3)cc2C(=O)N([C@H](C)CO)C[C@@H]1C	7.8	26.4	.	-0.452
O=c1c(-c2ccc(O[C@@H]3O[C@H](CO)[C@@H](O)[C@H](O)[C@H]3O)cc2)coc2c([C@@H]3O[C@H](CO)[C@@H](O)[C@H](O)[C@H]3O)c(O)cc(O)c12	-13.6	-33.3	2.0	1.57
C[C@@H]1CN([C@@H](C)CO)C(=O)c2cc(NC(=O)Nc3ccc(F)cc3)ccc2O[C@@H]1CN(C)CC1CCCCC1	-15.1	36.4	-0.9	0.271
COc1ccc(S(=O)(=O)N(C)C[C@@H]2Oc3c(NC(=O)Nc4c(C)noc4C)cccc3C(=O)N([C@@H](C)CO)C[C@H]2C)cc1	-0.6	-21.6	2.3	-0.348
Cc1ccc(S(=O)(=O)N(C)C[C@H]2Oc3ccc(NS(=O)(=O)c4cccs4)cc3CC(=O)N([C@H](C)CO)C[C@H]2C)cc1	-0.3	12.3	.	-0.616
COC(=O)c1c(C)ncc2c1COC(C)OC2 (stereo unspecified)	25.2	-0.9	0.2	0.469
C[C@@H]1CN([C@H](C)CO)C(=O)c2cc(NC(=O)Nc3ccc4c(c3)OCO4)ccc2O[C@H]1CN(C)Cc1ccccc1	4.7	2.5	.	-0.106

Arranged by formula weight (descending): 3 of the compounds above.
SMILES	MITF inh	Shh pathway inh	PD-1 reverse act	YB-1 expr inh
Cc1ccc(S(=O)(=O)N(C)C[C@H]2Oc3ccc(NS(=O)(=O)c4cccs4)cc3CC(=O)N([C@H](C)CO)C[C@H]2C)cc1	-0.3	12.3	.	-0.616
O=c1c(-c2ccc(O[C@@H]3O[C@H](CO)[C@@H](O)[C@H](O)[C@H]3O)cc2)coc2c([C@@H]3O[C@H](CO)[C@@H](O)[C@H](O)[C@H]3O)c(O)cc(O)c12	-13.6	-33.3	2.0	1.57
COC(=O)c1c(C)ncc2c1COC(C)OC2 (stereo unspecified)	25.2	-0.9	0.2	0.469

Following part.
SMILES	MITF inh	Shh pathway inh	PD-1 reverse act	YB-1 expr inh
C[C@H]1CN([C@@H](C)CO)C(=O)Cc2cc(NS(=O)(=O)c3cccs3)ccc2O[C@@H]1CN(C)Cc1ccc2c(c1)OCO2	-15.7	0.5	-2.3	0.0722
C[C@@H]1CN([C@H](C)CO)C(=O)Cc2cc(NS(C)(=O)=O)ccc2O[C@H]1CN(C)CC1CC1	-10.4	75.0*	2.5	-0.0832
Cc1ccc(NC(=O)COc2ccc(Br)cc2)cc1NC(=O)c1ccccc1	19.0	.	-2.1	.
COc1cc(S(=O)(=O)Nc2cccnc2)ccc1F	-2.8	.	2.8	.
CC(Sc1ncnc2sc(-c3ccccc3)cc12)C(=O)Nc1cc(Cl)ccc1Cl (stereo unspecified)	17.8	.	0.6	.
COc1ccc(CN(C)C[C@H]2Oc3ccc(NS(=O)(=O)c4cccs4)cc3C(=O)N([C@@H](C)CO)C[C@H]2C)cc1	4.7	17.8	0.2	-0.526
C[C@H](CO)N1C[C@H](C)[C@H](CN(C)Cc2ccc3c(c2)OCO3)Oc2ccc(NS(=O)(=O)c3cccs3)cc2CC1=O	-4.0	-12.8	.	-0.318
COc1ccc(NC(=O)N(C)C[C@@H]2Oc3ccc(NC(=O)CCN4CCOCC4)cc3C(=O)N([C@@H](C)CO)C[C@@H]2C)cc1	-9.0	.	2.0	-0.543
O=C1CC(c2ccc(O)cc2)Oc2cc(O[C@@H]3O[C@H](CO)[C@@H](O)[C@H](O)[C@H]3O)cc(O)c21 (stereo partly specified)	-36.0	-12.4	-1.3	0.0973
COc1ccc(NC(=O)Nc2ccc3c(c2)C(=O)N([C@H](C)CO)C[C@H](C)[C@@H](CN(C)C(=O)Nc2ccc(F)cc2)O3)cc1	-3.0	-38.5	1.5	-0.349
C[C@@H]1CN([C@@H](C)CO)C(=O)c2cc(NC(=O)C3CC3)ccc2O[C@@H]1CN(C)S(C)(=O)=O	-0.9	-3.3	1.9	-0.0153
N#Cc1c(SCC(=O)c2ccc(F)cc2)nsc1SCC(=O)c1ccc(F)cc1	7.5	80.9*	-5.7	0.121
C[C@@H]1CN([C@@H](C)CO)C(=O)c2cccc(NC(=O)Nc3ccc(C(F)(F)F)cc3)c2O[C@H]1CN(C)CC1CC1	29.2	2.5	-6.0	0.234
Cc1ccc(C)c(OCC(=O)Nc2ccccc2C#N)c1	-109.1	.	-3.9	.
Clc1ccc2c(c1)nc(SCc1nnc(-c3ccccc3)o1)n2C1CCCCC1	7.1	.	-1.3	.
C[C@H]1CN([C@@H](C)CO)C(=O)c2cc(NS(=O)(=O)c3cccs3)ccc2O[C@@H]1CN(C)Cc1ccc(Oc2ccccc2)cc1	4.6	-4.0	.	0.151
O=c1[nH]cc(NCc2ccccc2)c(=O)[nH]1	4.5	-15.8	-16.0	0.0541
O=c1c2ccccc2nc(SCc2ccc3c(c2)OCO3)n1-c1ccccc1	29.4	.	1.6	-0.6
Cc1noc(C)c1S(=O)(=O)Nc1ccc2c(c1)C(=O)N([C@@H](C)CO)C[C@@H](C)[C@H](CN(C)S(=O)(=O)c1ccccc1)O2	2.4	-9.0	.	0.0494
c1ccc(-c2ccc(C(c3ccccc3)n3ccnc3)cc2)cc1 (stereo unspecified)	13.8	28.4	.	0.443
C[C@@H]1CN([C@H](C)CO)C(=O)c2cc(NC(=O)CCN3CCOCC3)ccc2O[C@@H]1CN(C)C(=O)NC1CCCCC1	1.3	.	0.1	-0.115
C[C@@H]1CN([C@H](C)CO)C(=O)c2cccc(NS(=O)(=O)c3ccc(F)cc3)c2O[C@H]1CN(C)C(=O)Nc1ccc(F)cc1	-6.1	6.1	.	0.454
CCOC(=O)NC(=O)CSc1ccccn1	-8.2	.	1.3	.
CC(C)NC(=O)Nc1ccc2c(c1)C(=O)N([C@H](C)CO)C[C@H](C)[C@@H](CN(C)C(=O)Nc1ccccc1)O2	3.1	-61.8	0.2	0.557
Cc1ccc(S(=O)(=O)Nc2ccc3c(c2)C(=O)N([C@H](C)CO)C[C@@H](C)[C@@H](CN(C)Cc2ccc4c(c2)OCO4)O3)cc1	-16.3	.	-0.8	-0.264
O=C(CCc1nc2ccccc2[nH]1)Nc1ccc(F)cc1	-22.1	.	1.7	.
Cn1c(SCC(=O)Nc2ccc(Oc3ccccc3)cc2)nnc1-c1cccs1	14.0	.	1.2	.
Cc1ccc(S(=O)(=O)N(C)C[C@H]2Oc3ccc(NC(=O)NC4CCCCC4)cc3CC(=O)N([C@H](C)CO)C[C@H]2C)cc1	7.0	18.1	.	-0.0233
C[C@@H]1CN([C@H](C)CO)C(=O)c2cc(NC(=O)Nc3ccc(C(F)(F)F)cc3)ccc2O[C@H]1CN(C)Cc1ccc2c(c1)OCO2	-5.4	-37.2	.	-0.000235
C[C@@H]1CN([C@H](C)CO)C(=O)c2cccc(NS(=O)(=O)c3cccs3)c2O[C@H]1CN(C)Cc1ccc(C(=O)Nc2ccccc2N)cc1	-10.6	.	1.4	-0.748
N[C@@H](C(=O)N[C@@H]1C(=O)N2C(C(=O)O)=C(Cl)CS[C@H]12)c1ccccc1	-3.4	-8.6	.	-0.322
C[C@H]1CN([C@@H](C)CO)C(=O)Cc2cc(NC(=O)Nc3cccc4ccccc34)ccc2O[C@H]1CN(C)CC1CCCCC1	-15.4	1.5	.	0.255
Cc1ccc(S(=O)(=O)N(C)C[C@H]2Oc3c(NC(=O)c4cc(C)nn4C)cccc3C(=O)N([C@H](C)CO)C[C@H]2C)cc1	-6.4	-6.9	.	0.553
Cc1ccnc(SCC(=O)c2ccc([N+](=O)[O-])cc2)n1	-2.9	.	1.0	.
COc1ccc(C2C3=C(CC(C)(C)CC3=O)N(C)C3=C2C(=O)CC(C)(C)C3)cc1	4.6	-3.8	-0.4	-0.309
COc1c(C2OCC(O)C(O)C2O)c(O)cc2oc(-c3ccc(OC4OC(C)C(O)C(O)C4O)cc3)cc(=O)c12 (stereo unspecified)	-0.3	6.6	1.1	-0.147
Cc1ccc(C2C(C#N)=C(N)OC(C3CC3)=C2C#N)cc1 (stereo unspecified)	2.2	7.1	-2.5	-0.203
Cc1noc(C)c1NC(=O)N(C)C[C@H]1Oc2ccc(NC(=O)C3CC3)cc2CC(=O)N([C@@H](C)CO)C[C@@H]1C	-12.7	28.0	0.6	-0.554
O=C(O)CN(Cc1ccccc1Cl)S(=O)(=O)c1ccc(Br)cc1	8.2	.	1.9	.
Cc1cc(C(=O)Nc2cccc3c2O[C@H](CN(C)Cc2ccc(-c4ccccc4)cc2)[C@@H](C)CN([C@@H](C)CO)C3=O)n(C)n1	3.7	47.9	0.6	-0.347
C[C@H]1CN([C@@H](C)CO)C(=O)c2cc(NC(=O)Nc3ccc(C(F)(F)F)cc3)ccc2O[C@H]1CN(C)Cc1ccc(C(=O)O)cc1	-0.2	.	3.4	-0.414
Cn1c(CN2CCOCC2)nnc1SCC(=O)Nc1sc2c(c1C#N)CCC(C(C)(C)C)C2 (stereo unspecified)	-52.6	.	0.8	.
